# Vaccinia mCherry: inhibitors of vaccinia virus infection (mCherry reporter signal); Vaccinia virus mCherry reporter infection, fluorescence; about a quarter of the inactives have no number; Potency, µM (series often up to 36.5 µM), without a hit: at the top dose activity change, negative = inhibition, most hits filed as inhibitors; hit rate 0.63% among 310,000; active = well fitted inhibition curve with a large enough effect; inconclusive = small, poorly fitted or top-dose-only effect; inactive = no such curve, though single readings can be large or run the other way; tested in A549 cells; note: nearly all actives have a fitted effect of over 35% in size; inactives centre near -10
# Vaccinia Venus: vaccinia inhibition (Venus reporter). hit rate 0.46% among 330,000. Potency, µM (top dose mostly 36.5 µM), for inactives: at the top dose activity change, negative = inhibition, most hits filed as inhibitors. AID 720580. Vaccinia virus Venus reporter expression, fluorescence; active means well fitted inhibition curve with a large enough effect; inconclusive means small, poorly fitted or top-dose-only effect; inactive means no such curve, though single readings can be large or run the other way; tested in A549 cells; note: nearly all actives have a fitted effect of over 30% in size; inactives centre near -10
# An asterisk follows results filed as active; i = inactive; ? = inconclusive; · = no result given. % is set by controls: 0 for no effect and ±100 for the full control effect; potency is the fitted concentration of half-maximal effect.
cpd	smiles	Vaccinia Venus	Vaccinia mCherry
1	COC(=O)c1ccc(C(=O)OC)c(NC(=O)Nc2ccc3c(c2)OCO3)c1	-11%	-18%
2	CN1CCN(C(=O)C2CC(c3c(F)cccc3Cl)=NO2)CC1 (stereo not drawn)	-7%	-3%
3	CCN1CCN(c2cc(=O)n3ccccc3n2)CC1	-2%	3%
4	Cc1ccc(NC(=O)/C(=C/c2cccc([N+](=O)[O-])c2)NC(=O)C2CCCCC2)cc1	-7%	-8%
5	CCOc1ccccc1NC(=O)c1nnn(CC(=O)Nc2ccc(OC)c(OC)c2)c1N	-17%	i
6	C[C@]12CCC(=O)C=C1C=CC1C2CC[C@@]2(C)C1CC[C@@H]2O (stereo partly drawn)	-15%	-5%
7	COC(=O)c1onc(-c2ccccc2)c1C(=O)OC	3%	·
8	Cc1ccc(S(=O)(=O)N2CCN(c3nc(-c4cccs4)cc4ccccc34)CC2)cc1	-15%	-3%
9	NSc1nc(N)c2nc(-c3ccccc3)c(-c3ccccc3)nc2n1	-20%	-21%
10	Cc1sc2ncnc(SCC(=O)N3CCCCC3)c2c1C	-3%	-12%
11	O=C1Cc2cc(S(=O)(=O)N3CCNCC3)ccc2N1	0%	-5%
12	Cc1c(N(C)S(=O)(=O)c2cccc(C(=O)NCC3CCCO3)c2)c(=O)n(-c2ccccc2)n1C (stereo not drawn)	-10%	i
13	Cc1cc(C)cc(NC(=O)CSc2nnc(Cc3cccn3C)n2-c2ccc(F)cc2)c1	-11%	-8%
14	COC(=O)C1=C(c2cc3ccccc3s2)C[C@@H]2CC[C@H]1N2C(=O)N1CCC(C)CC1	-25%	?
15	CCc1ccc(-n2cc(-c3ccc(F)cc3)[n+]3c2SCCC3)cc1	-6%	-25%
16	CC1=CC(C)(C)N(C(=O)Nc2ccccc2)c2ccccc21	-13%	-59%
17	Cc1cc(C(=O)N2CCC2(C)C(=O)NS(=O)(=O)c2cccc(OC(F)F)c2)nn1C (stereo not drawn)	5%	i
18	COc1ccc(CNC(=O)C2(C)Cc3c(-c4ccc(C(N)=O)cc4)ccnc3O2)cc1OC (stereo not drawn)	3%	-8%
19	CC(Oc1ccc(F)cc1)C(=O)Oc1ccc(N(C)S(=O)(=O)c2ccccc2)cc1 (stereo not drawn)	-10%	i
20	Cc1nc(N2CCN(C(=O)c3ccco3)CC2)c2oc3ccccc3c2n1	?	?
21	O=C(Nc1ccc(S(=O)(=O)N2CCCCC2)cc1)C1CCN(C(=O)c2ccco2)CC1	-8%	-16%
22	CC(C)[C@H](NS(=O)(=O)c1ccccc1)C(=O)OCn1nnc2ccccc2c1=O	-17%	-3%
23	CCOc1ccc(N(CC(=O)Nc2ccc(C)cc2)S(=O)(=O)c2c(C)noc2C)cc1	-10%	i
24	O=C(CSc1nncc2ccccc12)N1CCOCC1	-14%	?
25	Cc1ccn2cc(CNC(=O)c3cccs3)nc2c1	-10%	-13%
26	O=C(COC(=O)CCS(=O)(=O)c1ccccc1)Nc1cc(S(=O)(=O)N2CCCCC2)ccc1Cl	-4%	-1%
27	COc1ccc(NC(=O)C/C(C)=N/NC(=O)C(=O)NC(C)C)c(OC)c1	-8%	-14%
28	COC(=O)CSc1nc(N)c(C#N)c(CC(C)C)c1C#N	5%	2%
29	CCOC(=O)Cn1nnc(-c2ccccc2)n1	-11%	-1%
30	CCN(CC(=O)Nc1c(F)cccc1F)C(=O)CCN1C(=O)c2cccc([N+](=O)[O-])c2C1=O	-5%	-6%

# In a second layout: 3 of the compounds above
(5) CCOc1ccccc1NC(=O)c1nnn(CC(=O)Nc2ccc(OC)c(OC)c2)c1N
  Vaccinia Venus = -17%	Vaccinia mCherry = i
(6) C[C@]12CCC(=O)C=C1C=CC1C2CC[C@@]2(C)C1CC[C@@H]2O (stereo partly drawn)
  Vaccinia Venus = -15%	Vaccinia mCherry = -5%
(16) CC1=CC(C)(C)N(C(=O)Nc2ccccc2)c2ccccc21
  Vaccinia Venus = -13%	Vaccinia mCherry = -59%

# Following part.
cpd	smiles	Vaccinia Venus	Vaccinia mCherry
31	CCCCN(C/C=C/c1ccccc1OC)Cc1ccccc1	-2%	i
32	COCCCNC(=O)c1ccc(C)c(-n2c(C)nc3cccnc32)c1	-6%	-8%
33	CCc1ccc(N2CC(C(=O)Nc3ccc(S(=O)(=O)NCC4CCCO4)cc3)CC2=O)cc1 (stereo not drawn)	-26%	-23%
34	Cc1cccc(NC2=NC(=S)N(c3ccc(C(=O)O)cc3)C23CCCCC3)c1	-2%	-2%
35	Cc1cccc(CNc2ncnc3ccc(-c4cccnc4)cc23)c1	-4%	-2%
36	COc1ccc(COC(=O)N/C=C/c2ccco2)cc1	1%	i
37	CSc1ccc(-c2nnn(CC(=O)NCc3ccccc3)n2)cc1	?	·
38	COc1c(C)cc(C(=O)C2CCCN(C(=O)c3cccc(-n4cccn4)c3)C2)cc1C (stereo not drawn)	-5%	-12%
39	Cc1ccc(C(=O)c2c3ccc(C(F)(F)F)cc3[n+]([O-])n2CCCC(N)=O)cc1	-23%	-13%
40	CCCCN1C(=S)NC[C@@H]1c1ccccc1	-13%	-5%
41	CC(C)CN(CC(C)C)S(=O)(=O)N1CCC(C(=O)NCCc2ccc(Cl)cc2)CC1	?	-12%
42	Cc1cc(C)n(Cc2nc3ccccc3n2C)n1	-1%	-6%
43	CCn1c2ccccc2c2cc(CN3CCN(Cc4ccccc4Cl)CC3)ccc21	-21%	-13%
44	CCCCCn1c(=O)[nH]c2cc(C(=O)NCc3ccccn3)ccc2c1=O	2%	-10%
45	CC(C)CNc1cc(Cl)c(S(=O)(=O)NCC(C)C)cc1C(=O)O	-17%	i
46	Cc1cc(Cl)c(S(=O)(=O)NCc2ccncc2)cc1OCC(N)=O	-15%	-3%
47	C[C@]12CCC3C(CCC4=C/C(=N/OCC(=O)NC(CCC(N)=O)C(=O)O)CC[C@@]43C)C1CCC2O (stereo partly drawn)	-17%	i
48	CC(C)[C@H](NS(=O)(=O)c1ccccc1)C(=O)OCC(=O)Nc1cccc(S(N)(=O)=O)c1	0%	-13%
49	CCC(=O)NC(=S)Nc1cccc(NC(=O)c2ccc(Cl)cc2Cl)c1	?	·
50	CCCCNC(=O)CN1C(=O)CSc2ccc(S(=O)(=O)N3CCOCC3)cc21	-11%	i
51	Cc1cc(C)n(-c2ccc(Cl)c(C(=O)Nc3ccc(OC(F)(F)F)cc3)n2)n1	-17%	-10%
52	Cc1ccc(-n2nc(C)c3c2OC(N)=C(C#N)C3c2ccoc2)cc1 (stereo not drawn)	-14%	-15%
53	Cc1ccc(C)c(N(Cc2ccccc2F)S(C)(=O)=O)c1	-12%	i
54	CS(=O)(=O)N1CCC(C(=O)NCc2ccc(Cl)cc2Cl)CC1	-1%	i
55	CCOCCCNC(=O)C1CCN(S(=O)(=O)N(CC(C)C)CC(C)C)CC1	-7%	i
56	Cn1c(SCc2ccc([N+](=O)[O-])cc2)nnc1-c1cccnc1	-6%	-3%
57	CCOC(=O)COc1c(/C=N\OC)cc(Cl)cc1OC	-8%	i
58	Cc1ccc(-n2c(C)c(C)c3c(N)ncnc32)cc1	?	?
59	Cc1ccc(OCC(=O)Nc2ccc(C(=O)OCc3cc(=O)n4ccsc4n3)cc2)cc1C	-13%	-15%
60	CCOc1ccccc1NC(=O)Nc1cc2c(cc1N1CCCCC1)n(CC)c(=O)n2CC	-21%	-15%
61	COc1ccc(-c2cn3c(n2)sc2cc(C(=O)Nc4ccc(F)cc4Cl)ccc23)cc1	?	?
62	O=C(c1ccccc1)N1CCN(Cc2ccccc2)CC1	-12%	-13%
63	CCN(c1ccccc1C)S(=O)(=O)c1nnc(NC(=O)c2ccccc2C)s1	-11%	-13%
64	COc1ccc(N2CC(C)(C)[C@H](CC(=O)Nc3ccc(Br)cc3)C2=O)cc1	-9%	i
65	CN(C)S(=O)(=O)c1ccc(S(=O)(=O)N2CCCC(C(=O)NC3CC3)C2)cc1 (stereo not drawn)	2%	13%
66	O=C(c1oc2ccccc2c1N1CCCCC1)N1CCCCC1	-5%	-8%
67	CC(C)=CCOc1ccc2ccc(=O)oc2c1	-2%	4%
68	O=C(NCc1ccc(Cl)cc1)c1cc(-c2ccco2)on1	1%	-10%
69	Cc1cccc(NC(=O)c2ccccc2NC(=O)CCC(=O)O)c1	-15%	i
70	COc1ccc(CNC(=O)c2oc3ccc(S(=O)(=O)N4CCOCC4)cc3c2C)cc1	-14%	-15%
71	Cc1ccccc1OCC(O)CN(Cc1ccccc1O)C1CCCCC1 (stereo not drawn)	?	-24%
72	Cc1ccccc1OCc1nc2ccccc2[nH]1	-1%	-5%
73	CCOC(=O)c1c(NC(=O)/C=C/c2ccc(C)o2)sc(C)c1C	-3%	-10%
74	O=[N+]([O-])c1ccc2nc(NS(=O)(=O)c3ccc(Cl)cc3)sc2c1	-10%	-1%
75	Cc1ccccc1Cc1nc2cccnc2n1C1CCN(C(=O)CC2NC(=O)c3ccccc32)CC1 (stereo not drawn)	6%	-6%
76	O=C(Nc1ccccc1Cl)c1ccc2nccnc2c1	-1%	-3%
77	CCOC(=O)COc1cnc2ccccc2n1	-9%	0%
78	O=C(NCc1ccccn1)C1C2C=CC(C2)C1C(=O)Nc1ccc(F)cc1 (stereo not drawn)	-12%	·
79	CCCN1C(=O)SC(CC(=O)Nc2ccccc2)C1=O (stereo not drawn)	-14%	-15%
80	CC(C)(CC(=O)N1CCN(c2ccc(Cl)cc2)CC1)CC1=NS(=O)(=O)c2ccccc2N1	?	?
81	CC(=O)c1ccc(NC(=O)CSc2nnc(-c3ccco3)c(-c3ccco3)n2)cc1	-1%	-10%
82	O=C(O)c1cccc(NC(=O)C2C3C=CC(C3)C2C(=O)O)c1 (stereo not drawn)	3%	·
83	C=CCn1c(/N=C/c2ccc(N(C)C)cc2)nc2ccccc21	-7%	-13%
84	O=C(N1CCN(Cc2ccccc2)CC1)C12CC3CC(CC(C3)C1)C2	-12%	-18%
85	Cc1nnc(SCc2ccc([N+](=O)[O-])cc2)o1	0%	i
86	Cc1cccc(C)c1NC(=O)C1(C)CCC(=O)N1C1CCN(Cc2ccccc2)CC1 (stereo not drawn)	5%	16%
87	Cc1nc(CS(=O)(=O)c2ccccc2)cc(Sc2ccc(Cl)cc2)n1	-7%	·
88	COc1ccc(S(=O)(=O)NCC(c2ccc3c(c2)OCO3)N2CCN(c3ccccc3)CC2)cc1 (stereo not drawn)	1%	i
89	COc1cccc(NC(=O)c2ccc(CNS(=O)(=O)c3ccc4c(c3)C(C)(C)C(=O)N4C)cc2)c1	-19%	-20%
90	COC(=O)c1sc2ccccc2c1NC(=O)c1cccs1	-9%	-9%

# Further entries follow:
cpd	smiles	Vaccinia Venus	Vaccinia mCherry
91	CC1CCN(CC(=O)n2c3c(c4ccccc42)CCCC3)CC1	-8%	-28%
92	O=C1NCN(C2CCCCC2)CN1	8%	-20%
93	CCOc1ccccc1CNc1nc2nc(C)c(CC(=O)OC)c(=O)n2[nH]1	-14%	-19%
94	CCN(CC(=O)NC1CCS(=O)(=O)C1)S(=O)(=O)c1cccc(C(C)=O)c1 (stereo not drawn)	-9%	i
95	Cc1cc(N2CCN(C)CC2)nc2ccc(NC(=S)N3CCN(c4ccc(F)cc4)CC3)cc12	-14%	-28%
96	Cc1ccc2nc(COc3ccccc3NC(=O)C(C)(C)C)cc(=O)n2c1	-25%	-8%
97	N#Cc1ccc(C(=O)N2CCN(c3ncccn3)CC2)cc1	-20%	-19%
98	O=C1CC(NCC2CCCO2)C(=O)N1c1ccc(Cl)cc1 (stereo not drawn)	-5%	i
99	Cc1cc2occ(CC(=O)NNC(=O)c3ccccc3F)c2cc1C	1%	-16%
100	COC(=O)c1noc(-c2ccc(OC)cc2)n1	-7%	·
101	Cc1cccc(NC(=O)CSc2nnc(-c3n[nH]c4ccccc34)o2)c1	-19%	-13%
102	C=C(C)C1CNC(C(=O)O)C1CC(=O)O (stereo not drawn)	-3%	-11%
103	COc1ccc(CNC(=O)c2cc3c(s2)-c2ccccc2OC3)cc1	-8%	-6%
104	O=C(NC1CCSc2ccccc21)c1cc([N+](=O)[O-])ccc1N1CCOCC1 (stereo not drawn)	-5%	-5%
105	Cc1ccc(S(=O)(=O)Nc2cccc(NC(=O)CN3CCCCC3)c2)cc1	-21%	-22%
106	CC1=CC(C)(C)N(S(=O)(=O)c2ccc(C)cc2)c2ccc(C)cc21	?	-25%
107	Cc1cc2ccccc2c(=O)n1CC(=O)NC1CCCCCC1	-9%	-3%
108	COc1ccc(S(=O)(=O)N2CCN(C(=S)NCCc3ccccc3)CC2)cc1	-10%	i
109	COc1cc(C)ccc1OCc1cc(C(=O)NCCN2CCCC(O)C2)no1 (stereo not drawn)	-12%	-14%
110	Cc1cc2c(cc1S(=O)(=O)N1CCN(c3ccccc3F)CC1)OCC(=O)N2	-9%	i
111	CCOC(=O)C1=C(C)N=c2s/c(=C/c3ccc(OCC(=O)O)c(OC)c3)c(=O)n2C1c1ccc(Cl)cc1 (stereo not drawn)	9%	-4%
112	COc1cc(C(=O)NCCOc2ccc(F)cc2)c(Br)c(OC)c1OC	-6%	-14%
113	CCOC(=O)c1cc(CC)sc1NC(=O)COC(=O)c1cc[n+]([O-])cc1	-10%	i

# Given screen by screen: 2 of the compounds above
103	COc1ccc(CNC(=O)c2cc3c(s2)-c2ccccc2OC3)cc1
102	C=C(C)C1CNC(C(=O)O)C1CC(=O)O (stereo not drawn)
Screen / compound no. | 103 | 102
Vaccinia Venus | -8% | -3%
Vaccinia mCherry | -6% | -11%

# Compounds shown so far with bromine:
cpd	smiles	Vaccinia Venus	Vaccinia mCherry
64	COc1ccc(N2CC(C)(C)[C@H](CC(=O)Nc3ccc(Br)cc3)C2=O)cc1	-9%	i
112	COc1cc(C(=O)NCCOc2ccc(F)cc2)c(Br)c(OC)c1OC	-6%	-14%
